# Vaccinia inh: Vaccinia orthopox stage-specific inhibition. 0.01% of 89,000 active. Vaccinia-infected cells, mCherry/Venus stage reporter fluorescence; active compounds read low; some inactives read as strong as hits. activity change (mCherry), % (concentration not given with the values);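 active = mCherry past -33% and 40 or more points under the early reporter, replicates agreeing; inconclusive = past -33% without that gap or agreement; tested in A549 cells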;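 note: scaled between vehicle wells and reference inhibitor wells; 23 nL library stock went into each well; one replicate is shown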
# Vaccinia inh Venus: further read-out of Vaccinia inh, marked with its call; activity change (Venus), %; measured here: Venus reporter, other viral stage;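 negative = less Venus signal; first of two replicates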
# Starred values were filed as active, the others as inactive; ? = inconclusive; · = no result given; & = joins results of further samples.
SMILES,Vaccinia inh,Vaccinia inh Venus
CCCN1[C@@H]2Cn3c(ccc(-c4ccccc4)c3=O)[C@H]1[C@@H](C(=O)NCC)[C@@H]2CO,1.4,4.6
CNC[C@H]1Oc2ccc(NC(=O)NC3CCCCC3)cc2C(=O)N([C@H](C)CO)C[C@H]1C,10.3,2.5
CN(C)CC(=O)N1[C@@H](CO)[C@@H](c2ccccc2)C12CN(Cc1cccnc1)C2,-2.7,3.6
O=S(=O)(N[C@@H]1CC[C@H](CCn2cc(-c3cccc(F)c3)nn2)O[C@H]1CO)c1ccc(F)cc1,4.5,-4.4
CCC(=O)N1[C@H](C#N)[C@@H](c2ccccc2-c2cccc(C)c2)[C@H]1CO,-30.2,-23.0
COc1ccc(NC(=O)Nc2ccc3c(c2)C(=O)N([C@H](C)CO)C[C@@H](C)[C@H](CN(C)C(=O)C2CCCCC2)OCCCC[C@H](C)O3)cc1,3.7,2.7
OC[C@H]1[C@@H](c2ccc(/C=C/c3ccccc3)cc2)[C@H]2CN(Cc3ccncc3)CCCCN21,?,·
CC(=O)N1[C@@H]2c3ccc(-c4ccccc4)c(=O)n3C[C@H]1[C@H](CO)[C@H]2C(=O)NCC1CC1,5.0,-0.8
C[C@@H]1CN([C@@H](C)CO)S(=O)(=O)c2ccc(C3=CCCCC3)cc2O[C@@H]1CN(C)Cc1ccccc1F,?,·
Cc1noc(C)c1NC(=O)Nc1ccc2c(c1)C(=O)N([C@H](C)CO)C[C@@H](C)[C@@H](CN(C)S(=O)(=O)c1ccc(F)cc1)OCCCC[C@@H](C)O2,1.6,0.8
C[C@H](CO)N1C[C@H](C)[C@H](CN(C)Cc2cncnc2)Oc2cc(-c3ccccc3)ccc2S1(=O)=O,1.7,-14.2
O=C(C[C@@H]1C=C[C@@H](NC(=O)NC2CCCC2)[C@H](CO)O1)NCc1ccc(F)cc1,4.2,5.8
CN1C(=O)c2cc(NC(=O)C3CC3)ccc2OC[C@@H]2O[C@H](CC(=O)O)CC[C@H]21,-1.3,1.6
COc1ccc(S(=O)(=O)N(C)C[C@H]2OCCCC[C@@H](C)Oc3ccc(NS(C)(=O)=O)cc3C(=O)N([C@@H](C)CO)C[C@H]2C)cc1,-10.5,-7.5
O=C(Cc1cccnc1)N1[C@@H](CO)[C@@H](c2ccccc2)[C@@H]1CNCC1CCC1,9.4,12.0
CS(=O)(=O)Nc1ccc2c(c1)[C@@H]1C[C@@H](CC(=O)NCc3cc(F)ccc3F)O[C@@H](CO)[C@@H]1O2,-1.2,2.3
C[C@H](CO)N1C[C@H](C)[C@H](CN(C)Cc2ccc(Oc3ccccc3)cc2)Oc2ccc(NC(=O)Nc3ccc(C(F)(F)F)cc3)cc2C1=O,?,·
O=C(C[C@@H]1CC[C@H]2[C@@H](COC[C@@H](O)CN2Cc2cccc(F)c2)O1)NCc1cccc(F)c1,-8.4,-4.3
C=CCN1C(=O)[C@]2(O[C@H](CCO)[C@@H]([Si](C)(C)c3ccc(OC)cc3)[C@@H]2C)c2cc(N3CCCCC3=O)ccc21,-16.5,-4.1
COc1ccc(NC(=O)Nc2ccc3c(c2)C(=O)N([C@H](C)CO)C[C@@H](C)[C@@H](CN(C)C)O3)cc1,11.7,2.3
C[C@@H](O)C#Cc1ccc2c(c1)O[C@@H](CN(C)Cc1ccccc1)[C@@H](C)CN([C@@H](C)CO)S2(=O)=O,?,·
C[C@H](CO)N1C[C@H](C)[C@H](CN(C)Cc2ccncc2)Oc2ccc(NS(=O)(=O)c3ccc(F)cc3)cc2CC1=O,15.5,12.6
Cc1noc(C)c1NC(=O)Nc1ccc2c(c1)CC(=O)N([C@H](C)CO)C[C@@H](C)[C@@H](CN(C)S(=O)(=O)c1ccc(F)cc1)O2,17.9,5.5
C[C@@H]1CN([C@H](C)CO)C(=O)Cc2cc(NS(C)(=O)=O)ccc2O[C@H]1CN(C)Cc1ccc(C(=O)Nc2ccccc2N)cc1,13.8,3.7
O=C(NCC[C@@H]1CC[C@H](NS(=O)(=O)c2cccc(F)c2)[C@H](CO)O1)C1CCOCC1,8.9,2.7
C[C@@H]1CN([C@H](C)CO)C(=O)c2cc(NC(=O)c3ccncc3)ccc2O[C@@H]1CN(C)S(=O)(=O)c1ccc(Cl)cc1,-1.3,-5.1
CNC[C@@H]1Oc2ncc(C#Cc3ccc(OC)c(OC)c3)cc2C(=O)N([C@H](C)CO)C[C@@H]1C,-9.7,-8.0
CO[C@H]1CN(C)C(=O)c2ccc(NC(=O)C3CC3)cc2OC[C@H](C)N(C(=O)c2ccccn2)C[C@@H]1C,19.2,18.4
Cc1noc(C)c1S(=O)(=O)N(C)C[C@H]1Oc2ccc(NC(=O)C3CC3)cc2CC(=O)N([C@H](C)CO)C[C@H]1C,17.0,19.5
C[C@H](CO)N1C[C@H](C)[C@H](CN(C)C(=O)C2CCCCC2)Oc2ncc(C#CC3CCCCC3)cc2C1=O,?,·
CN(C)C(=O)C[C@H]1C[C@@H]2c3cc(NS(C)(=O)=O)ccc3O[C@@H]2[C@@H](CO)O1,4.2,7.6
C[C@H]1CN([C@@H](C)CO)C(=O)Cc2cc(NS(=O)(=O)c3cccs3)ccc2O[C@H]1CN(C)S(=O)(=O)c1ccccc1,4.5,5.4
C[C@@H]1CN([C@@H](C)CO)C(=O)c2cc(NC(=O)C3CCCCC3)ccc2O[C@@H](C)CCCCO[C@@H]1CN(C)S(=O)(=O)c1ccc(Cl)cc1,-5.6,-0.2
CCC(=O)Nc1ccc2c(c1)OC[C@@H](C)NC[C@@H](C)[C@H](OC)CN(C)C2=O,-1.3,-2.2
COc1ccc(S(=O)(=O)Nc2ccc3c(c2)C(=O)N([C@H](C)CO)C[C@H](C)[C@@H](CN(C)S(=O)(=O)c2ccc(C)cc2)OCCCC[C@@H](C)O3)cc1,14.6,6.2
CN(C)C(=O)c1ccc(-c2ccc3c(c2)[C@H]2[C@H](CCN2Cc2ccc4c(c2)OCO4)[C@@H](CO)N3)cc1,-22.5,-10.0
C[C@@H]1CN([C@@H](C)CO)C(=O)c2cc(NC(=O)NC3CCCCC3)ccc2O[C@@H](C)CCCCO[C@@H]1CN(C)Cc1ccccc1,?,·
C[C@H](CO)N1C[C@H](C)[C@H](CN(C)CC2CCCCC2)OCCCC[C@H](C)Oc2ccc(NC(=O)Nc3ccc4c(c3)OCO4)cc2C1=O,?,·
C[C@H](CO)N1C[C@H](C)[C@H](CN(C)Cc2cccnc2)Oc2cc(C#CC3CCCCC3)ccc2S1(=O)=O,?,·
CCCNC(=O)N(C)C[C@@H]1Oc2cc(C#CCC(C)C)ccc2S(=O)(=O)N([C@H](C)CO)C[C@H]1C,-28.3,-25.8
COc1ccc(NC(=O)N(C)C[C@H]2OCCCC[C@@H](C)Oc3ccc(NC(=O)Nc4ccc(C(F)(F)F)cc4)cc3C(=O)N([C@@H](C)CO)C[C@H]2C)cc1,-4.5,4.2
COc1ccc(CNC(=O)C[C@H]2C=C[C@H](NC(=O)c3cccc(F)c3)[C@H](CO)O2)cc1,-4.3,-7.8
O=S(=O)(N[C@H]1CC[C@@H](CCn2cc(C3(O)CCCC3)nn2)O[C@H]1CO)c1ccc(Cl)cc1,-11.0,-3.9
COC(=O)C[C@@H]1CC[C@H]2[C@@H](COc3ccc(NC(=O)c4cc(C)on4)cc3C(=O)N2C)O1,6.4,9.1
CC(=O)N[C@H]1[C@H](O/N=[N+](\[O-])N2CCCC2)OC(CO)[C@@H](O)[C@@H]1O (stereo not given in full),23.6,0.8
CCC(=O)N1[C@@H]2Cn3c(ccc(-c4ccncc4)c3=O)[C@H]1[C@@H](C(=O)N1CCc3ccccc3C1)[C@@H]2CO,14.1,7.6
COc1ccc(CN(C)C[C@H]2Oc3c(NC(=O)c4ccc(-c5nccs5)cc4)cccc3C(=O)N([C@H](C)CO)C[C@H]2C)cc1,-21.4,-14.8
C[C@@H]1CN([C@H](C)CO)C(=O)c2cc(Br)cnc2O[C@H]1CN(C)C(=O)c1ccc(F)cc1,18.4&12.8,14.1&7.3
COc1ccc(NC(=O)N(C)C[C@@H]2Oc3ccc(NC(=O)CCCCCC(=O)Nc4ccccc4N)cc3CC(=O)N([C@@H](C)CO)C[C@H]2C)cc1,7.9,-1.4
C[C@@H]1CN([C@@H](C)CO)S(=O)(=O)c2ccc(-c3ccc(F)cc3)cc2O[C@H]1CN(C)C(=O)Nc1ccccc1F,-33.5,-33.5

# Remaining list, next part
SMILES,Vaccinia inh,Vaccinia inh Venus
COCC(=O)N(C)C[C@@H]1Oc2ncc(-c3ccccc3C)cc2C(=O)N([C@@H](C)CO)C[C@@H]1C,23.7,11.0
CCCN(C)C[C@H]1Oc2cc(Br)ccc2S(=O)(=O)N([C@@H](C)CO)C[C@H]1C,-2.4,0.3
C[C@@H]1CCCCO[C@H](CN(C)C(=O)Nc2ccccc2)[C@@H](C)CN([C@H](C)CO)C(=O)c2cc(NC(=O)CCC(F)(F)F)ccc2O1,17.8,16.5
CO[C@H]1CN(C)C(=O)c2cc(NC(C)=O)ccc2OC[C@@H](C)N(C(=O)CN2CCOCC2)C[C@H]1C,19.1,8.9
CCCN1[C@H](C(=O)NCCc2cn(C)cn2)[C@@H](CO)[C@@H]2Cn3c(ccc(-c4ccccc4)c3=O)[C@@H]21,3.9,13.7
C[C@H]1CN([C@@H](C)CO)C(=O)Cc2cc(NC(=O)CCCN(C)C)ccc2O[C@@H]1CN(C)S(=O)(=O)c1cn(C)cn1,6.9,14.2
Cc1ccc(S(=O)(=O)N(C)C[C@H]2Oc3ccc(NC(=O)CCN4CCOCC4)cc3C(=O)N([C@@H](C)CO)C[C@@H]2C)cc1,4.2,3.2
C[C@H](CO)N1C[C@H](C)[C@H](CN(C)Cc2cccnc2)Oc2ncc(/C=C/c3ccccc3)cc2C1=O,-24.9,-16.0
COc1ccccc1C(=O)Nc1ccc2c(c1)C(=O)N(C)C[C@@H](OC)[C@H](C)CN(C)[C@H](C)CO2,1.8,0.7
C[C@@H]1CN([C@H](C)CO)C(=O)Cc2cc(NC(=O)Nc3ccccc3)ccc2O[C@H]1CN(C)S(=O)(=O)c1ccc(F)cc1,1.0,6.7
O=C(CN1CCOCC1)N1CC(=O)N2[C@H](CO)[C@@H](c3ccc(/C=C/c4ccccc4)cc3)[C@H]2C1,?,·
C[C@@H]1CCCCO[C@@H](CN(C)CC2CC2)[C@@H](C)CN([C@H](C)CO)C(=O)c2cc(NC(=O)c3ccccc3)ccc2O1,-13.7,-8.1
C[C@H](CO)N1C[C@H](C)[C@H](CN(C)C(=O)Nc2ccc3c(c2)OCO3)Oc2ccc(N(C)C)cc2C1=O,3.3,1.2
C[C@H]1CN([C@@H](C)CO)C(=O)c2cc(NC(=O)CCN3CCOCC3)ccc2O[C@H]1CN(C)Cc1ccc(C(=O)O)cc1,6.9,0.6
C[C@@H](NC(=O)C[C@H]1C=C[C@@H](NC(=O)Cc2ccccn2)[C@@H](CO)O1)c1ccccc1,11.4,11.4
C[C@@H]1CN([C@H](C)CO)C(=O)c2cccc(NC(=O)c3ccc(-c4nccs4)cc3)c2O[C@@H]1CN(C)S(=O)(=O)c1ccc(F)cc1,-9.6,-10.7
C[C@H]1CCCCO[C@@H](CN(C)C(=O)Nc2ccc(C(F)(F)F)cc2)[C@@H](C)CN([C@@H](C)CO)C(=O)c2cc(NC(=O)Nc3ccc4c(c3)OCO4)ccc2O1,1.0,-5.6
CCCNC(=O)Nc1ccc2c(c1)OC[C@@H](C)N(CC1CCCC1)C[C@H](C)[C@@H](OC)CN(C)C2=O,-12.6,-8.7
Cc1noc(C)c1S(=O)(=O)Nc1cccc2c1O[C@H](CN(C)C)[C@H](C)CN([C@H](C)CO)C2=O,19.3,5.6
Cc1ccc(S(=O)(=O)N(C)C[C@H]2Oc3ccc(NS(=O)(=O)c4c(C)noc4C)cc3C(=O)N([C@H](C)CO)C[C@@H]2C)cc1,11.7,11.2
CCCC#Cc1ccc2c(c1)O[C@H](CN(C)C)[C@@H](C)CN([C@@H](C)CO)S2(=O)=O,-32.5,-18.2
C[C@@H]1CN([C@H](C)CO)C(=O)Cc2cc(NC(=O)Nc3ccc4c(c3)OCO4)ccc2O[C@H]1CN(C)S(=O)(=O)c1ccc(Cl)cc1,-2.5,3.0
CN1C(=O)c2cc(NC(=O)c3cccs3)ccc2OC[C@H]2O[C@@H](CC(=O)N3CCCCC3)CC[C@H]21,-6.7,-1.6
C[C@H]1CN([C@@H](C)CO)C(=O)Cc2cc(NC(=O)Nc3ccc(C(F)(F)F)cc3)ccc2O[C@H]1CN(C)C,-16.1,-12.2

# These rows are one share of the data, so the mix of outcomes need not match the whole.
